# PINK1 modulator – A Quantitative High throughput Screen to Identify Chemical Modulators of PINK1 Expression; PINK1 immunofluorescence, high-content cytometry, 24 h; actives 0.2% (n = 410,000); Potency, µM (top dose mostly 76.6 µM), inactives show at the highest dose activation (PINK1 increase), most hits filed as activators; active = well fitted activation curve with a large enough effect; inconclusive = small, poorly fitted or top-dose-only effect; inactive = flat fitted curve, though single readings scatter; cell line not stated here;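 further: potency means the concentration at half of the fitted maximal effect; % of control where 0% means no effect; nearly all actives have a fitted effect of over 65% in size; a mitochondrial uncoupler was the plate control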
#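 Decision-based qHTS: stable cells, 24 h exposure to five compound concentrations, CCCP as control. Fixed cells stained for PINK1 plus nuclear, mitochondrial and cell markers, cytometer read.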
# CtBP-E1A blk – qHTS Assay for Inhibitors of the CtBP/E1A Interaction; activity change, % (concentration not given with the values); AlphaScreen GST-E1A/His-CtBP binding, 1536-well; active compounds read low; control for the full effect not named in the record; AID 651724, 2012; CtBP / adenovirus E1A interaction (AlphaScreen); actives 0.49% (n = 340,000); in the data active means activity change below about -65%; inconclusive means about -30% to -65%; inactive means above about -30%; further: on the % scale 0 is the no-effect control and ±100 the full control effect
#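 Protein mix (5X: 125 nM each GST-E1A, His-CtBP) was incubated with pinned compound 2 h at 37 deg C in dark, in 50 mM Tris pH 8.0 buffer with 300 mM NaCl. Glutathione donor and nickel acceptor beads followed; AlphaScreen signal read after 1 h.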
# Sfp inh – qHTS Assay for Inhibitors of Bacillus subtilis Sfp phosphopantetheinyl transferase (PPTase). 4'-phosphopantetheinyl transferase ffp (Bacillus subtilis), Q9F4F7. Biochemical Sfp PPTase activity, qHTS. Potency, µM, for inactives: max response, negative = inhibition, actives largely listed as inhibitors. actives 3.5% (n = 310,000); active means well fitted inhibition curve with a large enough effect; inconclusive means small, poorly fitted or top-dose-only effect, or another doubt; inactive means no such curve, though single readings can be large or run the other way;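 further: the enzyme is Sfp with the accession as filed and its product quenches rhodamine fluorescence; potency means the concentration at half of the fitted maximal effect; 0% = enzyme reaction without inhibitor and -100% = no enzyme wells; top concentration of the series not given in the record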
#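 Compounds were incubated with enzyme (final 15 nM) for 15 min at room temperature before substrate addition started the reaction. Fluorescence at 525 nm excitation, 598 nm emission was recorded immediately and after 30 minutes.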
# D2 potentiator – Beta-Arrestin HTS for Positive Allosteric Modulators of the Human D2 Dopamine Receptor: Potentiators; D(2) dopamine receptor (Homo sapiens), P14416; actives 0.23% (n = 360,000); AID 624464, 2012; DiscoveRx D2 beta-arrestin cells, luminescence, 90 min; 100% = 57 uM dopamine signal; potentiation, % (no concentration beside the values); active = potentiation of 50% or more; inconclusive = 30% to 50%; inactive = 30% or less;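 further: compound concentration not given in the record; tested on top of an EC20 dose of dopamine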
# Target sequence (P14416 whole entry, looked up): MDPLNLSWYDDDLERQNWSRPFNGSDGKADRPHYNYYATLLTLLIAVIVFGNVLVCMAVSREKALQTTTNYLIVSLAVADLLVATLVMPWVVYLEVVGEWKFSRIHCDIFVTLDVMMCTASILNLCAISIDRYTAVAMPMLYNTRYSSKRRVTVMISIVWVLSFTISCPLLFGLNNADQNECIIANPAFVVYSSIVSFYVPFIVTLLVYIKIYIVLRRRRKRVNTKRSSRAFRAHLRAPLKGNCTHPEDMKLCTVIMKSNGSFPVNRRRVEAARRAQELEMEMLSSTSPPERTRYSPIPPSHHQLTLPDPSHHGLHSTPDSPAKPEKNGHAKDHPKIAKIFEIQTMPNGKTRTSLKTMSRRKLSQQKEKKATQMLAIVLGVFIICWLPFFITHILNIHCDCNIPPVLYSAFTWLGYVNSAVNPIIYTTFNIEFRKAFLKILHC
#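 D2 cells co-treated with compound plus 50 nM dopamine (EC20) for 90 min at 37 deg C to detect potentiation. Beta-arrestin recruitment was read as enzyme-fragment luminescence after 1 h at ambient temperature. Full response was set by 57 uM dopamine.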
# TRPV1 potentiator – HTS Assay for Compounds that Act as Potentiators of the Vanilloid Receptor 1; AID 540277, 2011; actives 0.02% (n = 320,000); TRPV1-expressing cells, Fluo-8 calcium influx, capsaicin EC20 potentiation; host cell line not named in the record; control for the full effect not named in the record; Transient receptor potential cation channel subfamily V member 1 (Homo sapiens), Q8NER1; potentiation, % at 8.33 µM; active means potentiation above 80%; inconclusive means 30% to 80%; inactive means below 30%; further: 0% is about no effect
#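 Cells expressing TRPV1 were dye-loaded with Fluo-8 and read kinetically: 10 s baseline, 3 min after compound (agonist portion), then 2 min after EC20 capsaicin (allosteric enhancer portion). Calcium-bound dye fluorescence at 480/520 nm.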
# D2 agonist – Beta-Arrestin HTS for Positive Allosteric Modulators of the Human D2 Dopamine Receptor: Agonists. D(2) dopamine receptor (Homo sapiens), P14416. DiscoveRx PathHunter D2 beta-arrestin, luminescence, 90 min; 100% = 57 uM dopamine signal. activation, % (test concentration not listed). actives 0.084% (n = 360,000). AID 624465, 2012; in the data active = activation above about 40%; inconclusive = about 15% to 40%; inactive = below about 15%; further: compound concentration not given in the record; the text of the record calls up to 30% inactive
#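 Agonist mode: compounds alone added to overnight-plated D2 PathHunter cells for 90 min at 37 C, with 57 uM final dopamine (EC100) defining full response. Beta-arrestin recruitment detected by chemiluminescent reagent, read after 1 h at ambient temperature.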
# Six1-Eya2 inh – qHTS Assay for Inhibitors of the Six1/Eya2 Interaction. Homeobox protein SIX1 (Homo sapiens) + Protein phosphatase EYA2 (Homo sapiens), …. AlphaScreen GST-Six1/His-Eya2 binding, biochemical; active compounds read low; control for the full effect not named in the record. activity change, % (test concentration not listed). actives 0.56% (n = 360,000); in the data active = activity change below about -65%; inconclusive = about -30% to -65%; inactive = above about -30%; further: on the % scale 0 is the no-effect control and ±100 the full control effect
#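 Compounds are tested against tagged Six1 and Eya2 proteins bridged by glutathione donor and nickel acceptor beads; after a one-hour incubation at 37 °C without light, AlphaScreen emission is recorded.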
# The depositor's hits bear a star; ? = inconclusive; nt = no result given; & = joins results of further samples; [ ] = remark or other dose.
SMILES,PINK1 modulator,CtBP-E1A blk,Sfp inh,D2 potentiator,TRPV1 potentiator,D2 agonist,Six1-Eya2 inh
O=C1CCC(c2ccccc2)(C2CCN(Cc3ccccc3)CC2)C(=O)N1 (stereo not given),0.1%,-14.6,20.8%&27.2%,-17.5,0.3,-6.1,5.9
NC(=O)COc1ccc(=O)n(-c2ccccc2)n1,0.5%,21.1,16.5%,3.2,-14.5,0.3,6.0
Cc1ccccc1C(=O)N1CCCC(CCC(=O)N2CCN(c3ccccn3)CC2)C1 (stereo not given),-0.2%,-8.6,10.1%,3.0,13.0,-0.3,2.3
CCc1ccc(CNC(=O)C2CCCN(c3nn4c(=O)cc(C)nc4s3)C2)cc1 (stereo not given),-0.3%,-2.9,13.5%,-5.4,-9.8,-3.1,1.2
COC(=O)C1=C(CN2CCSCC2)NC(=O)NC1c1cc(C)ccc1C (stereo not given),-1.3%,-1.0,-4.0%,3.8,10.7,-2.9,-6.0
C=CCn1c(=O)c(CCC(=O)Nc2ccc(N3CCOCC3)cc2)nc2cc(C(F)(F)F)ccc21,-1.0%,0.0,4.4%,-8.0,-16.9,1.2,-16.8
CC1=[N+](CC(=O)NC(C)(C)C)CCc2ccccc21,-2.7%,0.2,7.7%,7.2,23.8,0.1,4.1
Cc1onc(-c2ccccc2)c1C(=O)Nc1nnc(COc2ccc(Cl)cc2)s1,7.0%,-2.0,7.08µM*,?,6.6,0.4,0.1
O=C(c1cc(-c2cccs2)on1)N1CCOCC1,1.6%[38.3 µM],5.7,16.9%,4.9,-28.0,-1.8,1.9
Cc1cc(C(F)(F)F)c2c(=O)[nH]c(=O)n(Cc3ccccc3)c2n1,13.8%,0.0,2.3%,-6.6,22.4,-3.3,-0.2
CCOC(=O)Nc1nnc(-c2ccc(OC)c(OC)c2)s1,-0.8%,-2.6,12.2%,-17.5,-3.4,2.7,-0.3
O=C(O)C(Cc1ccccc1)n1cccc1 (stereo not given),-1.2%,1.2,12.9%,14.8,-2.3,0.4,6.5

# A portion from further up:
SMILES,PINK1 modulator,CtBP-E1A blk,Sfp inh,D2 potentiator,TRPV1 potentiator,D2 agonist,Six1-Eya2 inh
CCOC(=O)Nc1nnc(-c2ccc(OC)c(OC)c2)s1,-0.8%,-2.6,12.2%,-17.5,-3.4,2.7,-0.3
O=C(O)C(Cc1ccccc1)n1cccc1 (stereo not given),-1.2%,1.2,12.9%,14.8,-2.3,0.4,6.5

# Continuation.
SMILES,PINK1 modulator,CtBP-E1A blk,Sfp inh,D2 potentiator,TRPV1 potentiator,D2 agonist,Six1-Eya2 inh
O=C(NC1CCCCC1)C1CCN(S(=O)(=O)c2cccc3nsnc23)CC1,10µM*,5.3,9.0%,-3.5,-4.2,-1.3,2.6
Cc1cc2ccccc2n1CCNC(=O)C1CC1,2.2%,-11.5,7.4%,-6.2,-15.2,-2.4,-15.1
O=S(=O)(NCc1ccccc1Cl)c1cnc[nH]1,-0.3%,2.4,4.1%,-0.1,0.4,-2.7,1.2
CCOc1cc(C(c2c(C)[nH][nH]c2=O)c2c(C)[nH][nH]c2=O)ccc1OCc1ccc([N+](=O)[O-])cc1,-4.6%,-6.9,3.2%,-4.1,3.4,-1.0,-10.8
COc1ccccc1N(CCC#N)C(=O)CSc1nnc2ccccn12,-3.0%,2.1,nt,7.3,-8.6,2.9,0.9
Cc1ccc(S(=O)(=O)Nc2ccc3[nH]c(=O)[nH]c3c2)c(C)c1,-1.4%,9.0,-9.0%,-2.4,-3.4,0.8,1.4
COc1cc(OC)c(NC(=O)CN(C)S(=O)(=O)c2ccc3[nH]c(=O)oc3c2)cc1Cl,1.8%,nt,0.4%,-0.4,18.5,4.6,-12.3
CCOC(=O)CC1CCCCN1C(=O)c1ccc2nc(CCOC)oc2c1 (stereo not given),-1.1%,7.6,6.6%,2.9,5.6,1.8,0.3
O=C(Nc1ccc(F)cc1)N1CCN(c2ncccn2)CC1,-0.4%,nt,14.9%,-9.2,-7.0,1.0,3.8
COc1ccc(NS(=O)(=O)c2ccc(N3CCCC3)c(NC(=S)Nc3cccc(C)c3C)c2)cc1,-0.2%,4.7,12.6µM*,-11.1,11.7,-4.6,-27.1
CCOC(=O)Cc1csc(NC(=O)C(CC(C)C)NC(=O)C2CCCCC2)n1 (stereo not given),1.3%,-20.9,6.8%,-16.9,-1.1,-0.9,-19.6
COc1ccccc1NC(=O)c1cccs1,-1.1%,0.0,15.5%,-2.8,?,-0.3,6.9
COc1ccc(-n2c(N)c(C(=O)NCC3CCCO3)c3nc4ccccc4nc32)c(OC)c1 (stereo not given),?,7.9,-7.1%,0.5,-15.7,-0.1,16.9
Cc1ccccc1-n1ncc2c1CC(C)(C)CC2NC(=O)CCN1CCCCC1=O (stereo not given),-0.1%,-7.7,3.6%,-14.5,4.6,0.1,-5.2
O=C(COC(=O)C1CCN(C(=O)c2ccc(Cl)cc2)CC1)Nc1ccccc1F,-0.5%,0.2,nt,-2.9,-2.7,0.2,1.1
Cc1ccc(C(=O)Nn2c(O)c(C=C3N=c4ccccc4=N3)sc2=S)cc1,0.2%[38.3 µM],1.0,50.1µM*,-2.2,-4.9,-1.2,0.4
O=C(NCCN1CCC(n2c(=O)[nH]c3ccccc32)CC1)C(c1ccccc1)c1ccccc1,-0.6%,1.7,nt,nt,nt,nt,-12.4
CCc1cc(Cn2nc(-c3ccccc3C)cc2C(=O)O)on1,2.2%,6.8,nt,-0.8,-33.3,-1.8,2.6
Cc1ccnc(-n2c(CCN3C(=O)c4ccccc4C3=O)nc3ccccc3c2=O)c1,3.4%,1.0,14.3%,-11.8,-29.2,-5.5,1.5
O=S(=O)(c1ccc2c(c1)CCCC2)N1CCNCC1,0.0%,-3.3,nt,-0.5,0.5,2.9,1.8
N#Cc1c(-c2ccccc2Cl)noc1/C=C/Nc1ccc(C(=O)O)cc1,-0.5%,-9.4,5.9%,0.8,-3.1,-5.3,-3.5
COc1ccc(CNC(=O)CN2C(=O)NC(C)(c3cccc(Br)c3)C2=O)cc1 (stereo not given),-0.1%,-7.7,16.0%,-1.5,-19.8,6.1,-1.8
CNS(=O)(=O)c1ccc(Cl)nc1,3.0%,-7.1,-8.8%,-10.5,1.4,0.2,3.4
CCCCN(Cc1ccco1)C(=O)Cn1ncc2c(=O)oc3ccc(C)cc3c21,9.4%,-1.7,28.4%,-5.9,-4.8,-5.8,8.0
CC(C)CNS(=O)(=O)c1ccc(S(=O)(=O)N2CCC3(CC2)OCCO3)cc1,4.9%,-4.2,17.9%,-0.1,8.3,0.4,5.1
CC(C)(C)C(=O)NCCN1CCN(C(=O)C(C)(C)C)CC1,0.4%,5.0,11.9%,-12.8,0.3,-2.0,5.5
C/C(=N/NC(=O)CNC(=O)CCc1ccccc1)c1ccc(Cl)c(Cl)c1,1.4%,2.0,-4.4%,-8.5,-0.1,-4.5,-1.2
CC(C)n1c(NCc2cc(Cl)ccc2O)nc2ccccc21,?,-15.2,1.6%,-8.4,1.5,-2.7,-13.8
O=c1c(C(c2ccccc2)c2c(O)nc3n(c2=O)CCS3)c(O)nc2n1CCS2,0.9%,7.3,-3.2%,-2.8,16.2,-2.8,2.3
Cc1ccc(-n2c(SCC(=O)N3CCOCC3)nnc2-c2ccncc2)cc1,1.4%[38.3 µM],-20.1,13.6%,-15.0,2.5,-2.3,0.1
Cc1cc(OCC(=O)Nc2ccc3c(c2)OCCO3)ccc1Cl,?,16.3,2.2%,-9.5,-3.5,-0.9,-1.2
C/C(=N\NC(=O)c1cc(C)nc2ccccc12)c1ccc([N+](=O)[O-])cc1,-0.6%,-1.7,-19.3%,0.4,3.6,-3.8,-2.8
O=C(O)CCCCCNc1nc(=S)[nH]c2ccccc12,-0.7%,-2.5,?,-8.7,21.7,-1.8,-10.5
N#C/C(=C/c1ccc2c(c1)OCO2)C(=O)NCCc1c[nH]c2ccccc12,-3.6%[38.3 µM],-28.5,6.1%,5.0,8.7,0.8,-20.4
COc1ccc(-c2nnc(-c3cc4ccccc4oc3=O)o2)cc1,1.3%[38.3 µM],4.9,21.2%,0.9,10.5,-0.1,4.0
O=C(CSc1nc(O)cc(=O)[nH]1)N1c2ccccc2CCc2ccccc21,2.6%,5.8,-12.6%,0.4,1.4,-2.2,-14.6
COc1cccc(-c2coc3cc4oc(=O)c(CC(=O)O)c(C)c4cc23)c1,3.4%,nt,3.7%,-4.0,0.3,-1.7,-26.2
COc1ccc(-n2ncc(Cl)c(Cl)c2=O)cc1,-1.0%,-3.2,0.3%,-11.1,8.2,-3.2,-0.3
CC(C)(C(=O)N1CCC1(C)C(=O)NS(=O)(=O)c1ccccc1Cl)c1ccccc1 (stereo not given),0.0%,-0.7,nt,-1.4,nt,-5.2,-1.5
O=C(O)c1ccccc1C(=O)c1ccc(-c2ccccc2)cc1,-2.9%,4.1,4.6%,-4.1,17.7,-0.5,5.8
Cc1cc2c(=O)n(CC(=O)N3CCN(c4ccccc4)CC3)cnc2s1,20.6%,-0.4,12.1%,-25.2,4.4,0.5,-9.3
CN(C)CCCNC(=O)c1ccc(-c2nc(-c3ccc(Cl)cc3)cs2)cc1,-1.7%,-23.0,25.1µM*,-11.5,-1.4,1.2,3.2
COc1ccc(OC)c(CNS(=O)(=O)c2cc(-c3cc(C)no3)ccc2OC)c1,2.5%,nt,12.9%,-3.5,-4.9,-2.8,1.4
Oc1ccc(Br)cc1/C=N/Nc1ncc(-c2ccccc2)cn1,8.9%,4.6,19.5%,-23.8,9.7,-6.4,-0.2
CC(=O)N1CCN(c2ccc(S(=O)(=O)N3CCOCC3)cc2[N+](=O)[O-])CC1,-0.9%,2.3,nt,1.7,nt,0.0,5.4
Cc1c(CN2CCC(CO)(Cc3ccccc3)CC2)c2ccccc2n1C,1.5%,-14.4,10.5%,-8.7,0.8,-0.7,-11.4

# Screening data from PubChem BioAssay.
